# UUG fidelity: modulators of yeast start codon fidelity, primary screen, whole organism, S. cerevisiae, single point, plate reader | S. cerevisiae UUG-firefly luciferase reporter, luminescence/redox ratio | activity score, % at 18.7 µM | 350,000 compounds, 0.13% hits | AID 602363, 2012;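 active = replicate mean at a twofold rise or more, about +100% in these data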;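 also: firefly luciferase made from a UUG start codon reports start codon fidelity; reporter light over untreated wells divided by growth signal over untreated wells; some hits fall short of that in this replicate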
# PABP FP inh: PABP poly(A) RNA binding inhibitors, primary screen, biochemical, fluorescence polarization, uHTS; Polyadenylate-binding protein 1 (Homo sapiens), P11940; 290,000 compounds, 1% hits; inhibition, % at 35 µM;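 active = 50% or more with normal probe brightness, or confirmed in later tests; about a fifth of its hits are not listed in these tables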;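 also: calls also rest on retests at 20 µM and on dose response follow-up; controls were probe without protein and protein plus probe with vehicle; some compounds called inactive have numbers as strong as hits; many hits fall short of the cut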
# Target sequence (P11940 whole entry, looked up): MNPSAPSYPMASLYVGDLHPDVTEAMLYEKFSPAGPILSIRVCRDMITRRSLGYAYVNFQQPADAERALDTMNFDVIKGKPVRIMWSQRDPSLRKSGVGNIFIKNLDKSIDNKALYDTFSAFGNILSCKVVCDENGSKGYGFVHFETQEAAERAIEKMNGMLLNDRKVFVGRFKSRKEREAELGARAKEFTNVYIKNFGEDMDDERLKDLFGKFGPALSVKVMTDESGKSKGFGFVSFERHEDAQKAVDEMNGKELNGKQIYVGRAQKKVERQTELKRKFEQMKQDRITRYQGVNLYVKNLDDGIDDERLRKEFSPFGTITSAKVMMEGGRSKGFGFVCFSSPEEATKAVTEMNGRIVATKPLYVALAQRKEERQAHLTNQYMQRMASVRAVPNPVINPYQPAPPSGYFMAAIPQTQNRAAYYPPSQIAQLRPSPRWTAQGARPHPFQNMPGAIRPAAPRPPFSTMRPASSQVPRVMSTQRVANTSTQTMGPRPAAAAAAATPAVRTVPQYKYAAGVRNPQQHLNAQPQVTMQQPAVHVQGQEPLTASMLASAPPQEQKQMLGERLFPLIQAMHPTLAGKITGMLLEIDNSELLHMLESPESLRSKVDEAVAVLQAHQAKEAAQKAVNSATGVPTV
# HIV Env fusion: inhibitors of HIV-1 Env-driven cell-cell fusion, primary screen, HeLa-JRFL effector, CEM21 target cells, luciferase. 360,000 compounds, 1.1% hits. AID 651610, 2012. inhibition, % at 12.3 µM;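 active = mean replicate inhibition score of at least 50 and every replicate individually at or above 50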;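 also: 0% = plate neutral controls and 100% = maraviroc near 300 nM; one replicate is shown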
# Rce1 inh: yeast Rce1p protease inhibitors, primary screen, biochemical, fluorescence, cell-free homogeneous; CAAX prenyl protease 2 (Saccharomyces cerevisiae (strain ATCC 204508 / S288c)), Q03530; 290,000 compounds, 0.27% hits; AID 2563, 2010; yeast membranes, quenched prenylated peptide cleavage fluorescence; calls only;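 active = fall in fluorescence gain of 50% or more versus controls, with final raw signal at or below 3038400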;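 also: plate controls were neutral control wells for no effect and wells lacking membranes for full effect; tested at 10 µM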
# CSC inhib: cancer stem cell viability inhibitors, primary screen, luminescence; cancer stem cell-like cells viability; inhibition, % at 7.5 µM; 300,000 compounds, 1.1% hits;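 active = mean at 75% or more and at least half the replicates too; tested in HMLE shEcad cells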;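 also: 0% = median of negative and 100% = median of positive control wells; the first replicate is given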
# MT1-MMP act inh: blockers of MT1-MMP proenzyme processing, primary screen, HT1080 RFP-PRO-GFP cells, GFP/RFP fluorescence | Matrix metalloproteinase-14 (Homo sapiens), P50281 | GFP/RFP ratio fluorescence, overnight; percent of plate control window, DMSO zero | GFP/RFP ratio change, % at 20 µM | 360,000 compounds, 0.061% hits | AID 651647, 2012;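 active = GFP/RFP ratio change of at least 30% with cell ATP level not reduced by more than half and red fluorescence within 50% of control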; also: strong numbers were not always called active
#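 Compound: 20 µM single dose, 1% DMSO / System: HT1080 RFP-PRO-GFP cells / Controls: DMSO and RFP-L50D-GFP cell wells / Read-out basis: GFP/RFP fluorescence ratio / Schedule: overnight compound exposure at 37 °C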
# eIF4H inh: human eIF4H binding inhibitors, primary screen, translation initiation inhibitor project, biochemical, uHTS, fluorescence polarization. Eukaryotic translation initiation factor 4H (Homo sapiens), Q15056. eIF4H fluorescence polarization binding assay. 290,000 compounds, 0.94% hits. inhibition, % at 35 µM;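 active = 50% or more with normal probe brightness, or confirmed in later tests; about a fifth of its hits are not listed in these tables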;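 also: calls also rest on retests at 20 µM and on dose response follow-up; 0% = protein and probe with vehicle and 100% = probe without protein; strong numbers were not always called active; many hits fall short of the cut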
# eIF4H inh retest: further read-out of eIF4H inh, marked with its call; inhibition, %; compound at 20 µM; confirmation average;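 mean of two retest wells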
# PABP FP inh retest: also measured in PABP FP inh; calls as there; inhibition, %; compound at 20 µM; confirmation repeats;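 mean of two retest wells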
# MT1-MMP act inh RFP: recorded beside MT1-MMP act inh, whose call it bears; RFP signal change, %; measured here: RFP expression control read;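 0 = vehicle wells; hits needed this value within 50% of zero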
# The depositor's hits bear a star; i = inactive; nt = no result given; & = joins results of further samples.
SMILES,UUG fidelity,PABP FP inh,HIV Env fusion,Rce1 inh,CSC inhib,MT1-MMP act inh,MT1-MMP act inh RFP,eIF4H inh,others
Cc1cccc(NS(=O)(=O)c2cccc3cccnc23)n1,-22.4,-6.0,-48.8,i,-4.2,-5.2,-0.5,-13.2,
CCOc1ccccc1-c1nn2c(Cc3ccccc3)nnc2s1,-13.7,-4.4,1.1,i,nt,0.7,5.4,1.3,
COc1cc2c(cc1OC)C(C(=O)Nc1ccccn1)C(c1cccnc1)N(C)C2=O (configuration not stated),-12.0,0.4,-1.3,i,-5.3,-5.0,-1.2,-5.0,
COc1ccccc1Cn1c(=S)[nH]c2cc(C(=O)NCCN(C)C)ccc2c1=O,-17.0,-4.5,-11.2,i,nt,3.3,1.6,-13.0,
CN(CC(=O)Nc1ccccc1Cl)C(=O)CN1C(=O)C2CC=CCC2C1=O (configuration not stated),-1.7,nt,nt,nt,-7.7,1.4,1.8,nt,
O=C(Nc1ccc(Br)cc1Cl)NC1CC1,nt,-4.3,1.1,i,-6.5,-2.6,-8.5,-3.3,
COc1cccc(C(N)=O)c1,-14.7,nt,nt,i,-8.6,nt,nt,nt,
CCOC(=O)C(=O)Nc1ccc(Oc2ccccc2)cc1,0.9,13.1,5.8,i,-5.6,-1.6,1.9,-0.2,
O=C(Nc1cc(Cl)ccc1N1CCOCC1)c1ccco1,-6.0,0.6,6.0,i,-3.7,-9.3,-7.5,-7.7,
O=C(CCc1ccccc1)Nc1ccncc1,nt,-6.6,25.9,i,-7.5,-2.6,-8.9,-8.7,
CCc1cccc(OCC(=O)Nc2ccc(S(=O)(=O)Nc3ccccn3)cc2)c1,nt,-8.2,5.3,i,1.8,-2.8,-7.5,-0.8,
O=C(OCCN1CCN(c2ncc(C(F)(F)F)cc2Cl)CC1)c1ccc(Cl)cc1,6.3,-6.3,nt,i,-11.3,2.1,1.4,5.6,
Cc1[nH]n(-c2nc(-c3ccc(Cl)cc3)cs2)c(=O)c1N=Nc1ccc(O)cc1,nt,36.3,5.8,i,-1.6,9.5,-21.1,69.8,eIF4H inh retest=1.6;PABP FP inh retest=3.3
COc1cc(C(=O)N2CCN(C3=NS(=O)(=O)c4ccccc43)CC2)cc(OC)c1OC,-1.2,nt,-19.8,nt,nt,-3.3,6.7,nt,
O=C(c1ccc([N+](=O)[O-])s1)N1CCN(c2ccc(C(F)(F)F)cn2)CC1,-19.3,-13.3,19.3,i,9.8,6.7,-11.6,-9.3,

# Entries listed so far with fluorine (2):
SMILES,UUG fidelity,PABP FP inh,HIV Env fusion,Rce1 inh,CSC inhib,MT1-MMP act inh,MT1-MMP act inh RFP,eIF4H inh,others
O=C(OCCN1CCN(c2ncc(C(F)(F)F)cc2Cl)CC1)c1ccc(Cl)cc1,6.3,-6.3,nt,i,-11.3,2.1,1.4,5.6,
O=C(c1ccc([N+](=O)[O-])s1)N1CCN(c2ccc(C(F)(F)F)cn2)CC1,-19.3,-13.3,19.3,i,9.8,6.7,-11.6,-9.3,

# The results go on.
SMILES,UUG fidelity,PABP FP inh,HIV Env fusion,Rce1 inh,CSC inhib,MT1-MMP act inh,MT1-MMP act inh RFP,eIF4H inh,others
Clc1ccc(CCNc2ncnc3c2nnn3Cc2ccccc2)cc1,-17.0,3.0,-7.6,i,-7.6,1.4,-1.9,4.1,
CN1C[C@@H]2C(c3ccc(Cl)nc3)C3(c4ccc(C#N)cc4)CC2(C3)[C@H]1c1ccccc1 (some centres not stated),-3.4,2.7,3.6,i,1.1,-0.2,-8.2,-8.4,
CCC(CO)Oc1cc(NC(=O)c2ccccc2F)c2ncn(C(C)C)c2c1 (configuration not stated),31.0&6.3,nt,17.6,nt,nt,3.6,5.4,nt,
CCc1ccc(S(=O)(=O)NCc2cccnc2)cc1,-15.8,3.7,12.7,i,-1.5,1.4,-6.4,0.5,
O=C(/C=C/c1ccccc1)NCCS(=O)(=O)N1CCN(c2ccccc2F)CC1,-20.3,nt,1.3,i,-5.5,4.7,1.6,nt,
Cc1cc(C)n2nc(SCC(N)=O)nc2n1,nt,51.5*,7.5,i,-6.8,0.3,2.8,-5.6*,eIF4H inh retest=113.4*;PABP FP inh retest=81.1*
CCOC(=O)c1nonc1NC(C)=O,-0.4,-5.6,30.1,i,-13.5,-1.0,0.9,0.4,
COc1ccc(OC)c(CN2CCN(C(=O)c3cccc4ccccc34)CC2)c1,-6.7,22.8,nt,i,-1.2,3.9,0.5,0.5,
CC(C)c1cccc(OCCN2CCCC2)c1,-12.3,2.2,-0.7,i,-24.4,3.2,6.2,5.3,
NC(=O)c1ccc(NC(=O)COC(=O)CC2CC3CCC2C3)cc1 (configuration not stated),-21.9,nt,1.9,nt,-17.1,2.9,2.0,nt,
Cc1cc(SCC(=O)OCC(=O)NCc2ccc3c(c2)OCO3)c(C)cc1Br,nt,-3.4,3.5,i,0.7,2.9,3.8,-10.3,
CCOc1ccc(NC(N)=O)cc1OCC,-13.7,2.6,-64.2,i,7.4,1.7,0.5,4.2,
C[C@@H]1CN(S(=O)C(C)(C)C)[C@H](CCO)/C1=C\CCO (some centres not stated),-16.9,nt,-12.6,nt,nt,1.7,4.5,nt,
CN(CC(=O)N1CCc2ccccc21)S(=O)(=O)c1ccc(Cl)cc1,10.7,4.4,-3.0,i,-3.8,-0.4,1.7,-8.9,
O=C1c2cccc3c([N+](=O)[O-])ccc(c23)C(=O)N1Cc1cccnc1,nt,-1.0,-35.7,i,nt,-133.7,-0.8,45.9,

# The final two records of the section before are carried over, then new ones follow:
SMILES,UUG fidelity,PABP FP inh,HIV Env fusion,Rce1 inh,CSC inhib,MT1-MMP act inh,MT1-MMP act inh RFP,eIF4H inh,others
CN(CC(=O)N1CCc2ccccc21)S(=O)(=O)c1ccc(Cl)cc1,10.7,4.4,-3.0,i,-3.8,-0.4,1.7,-8.9,
O=C1c2cccc3c([N+](=O)[O-])ccc(c23)C(=O)N1Cc1cccnc1,nt,-1.0,-35.7,i,nt,-133.7,-0.8,45.9,
CCCCNC(=O)c1nc(C2CCN(S(=O)(=O)c3cccc(C(F)(F)F)c3)CC2)oc1-c1ccccc1,-7.4,nt,23.0,nt,nt,-4.9,-14.8,nt,
CCOc1ccccc1NC(=O)CSc1nnc(CNC(=O)c2ccco2)o1,-11.4,-0.5,-5.4,i,-3.7,-1.2,2.4,6.0,
Cc1cc(F)ccc1S(=O)(=O)NCC1CC2CCC1C2 (configuration not stated),-6.7,3.0,1.9,i,-1.4,1.4,-1.5,-6.3,
CC(=O)OCCCN1C(=O)c2ccc(Br)cc2C1=O,-21.0,5.6,nt,i,-10.9,-1.1,5.0,-2.9,
CC(=O)c1ccc(NC(=O)C(C)OC(=O)c2ccc(NS(=O)(=O)c3ccc4[nH]c(=O)[nH]c4c3)cc2)cc1 (configuration not stated),-3.5,nt,-6.9,nt,nt,-9.2,-1.6,nt,
CCOC(=O)C1=C(c2ccccc2)N=c2s/c(=C\c3ccco3)c(=O)n2C1c1cccs1 (configuration not stated),nt,-1.0,nt,i,nt,-4.3,6.0,74.8,eIF4H inh retest=4.4;PABP FP inh retest=4.8
CN(C(=O)CSc1nc(-c2ccc(F)cc2)cs1)C1CCS(=O)(=O)C1 (configuration not stated),-11.6,-1.5,1.2,i,nt,-9.8,-1.4,4.7,
CCOc1ccccc1OCC(=O)Nc1cccc(S(=O)(=O)NC2=NCCCCC2)c1,-8.1,nt,nt,nt,-16.5,-4.7,-4.0,nt,
COCc1c(C(=O)NCC(c2ccco2)N2CCCC2)oc2ccccc12 (configuration not stated),-7.7,nt,3.5,nt,nt,4.1,-0.9,nt,
CC1(C)C(=O)OC(/C=C\c2cccc([N+](=O)[O-])c2)C(C)(C)C1=O (configuration not stated),nt,-1.2,3.0,i,-1.6,0.9,3.7,5.0,
CCOC(=O)C1=C(C)N(C)C(=O)NC1c1cccc2ccccc12 (configuration not stated),-13.7,9.9,-5.7,nt,-1.5,0.2,-6.2,-15.4,
CCS(=O)(=O)N1Cc2ccccc2CC1C(=O)N(C)Cc1ccc(OC)cc1OC (configuration not stated),7.4,3.4,14.1,i,-1.0,2.4,-1.3,2.4,
COC(=O)c1ccc(OCCOc2ccc(C(=O)OC)cc2)cc1,-9.2,0.2,2.5,i,-7.6,0.2,-1.2,-9.0,
CC(=O)NC(O)C(=O)c1ccccc1 (configuration not stated),8.5,-2.1,-16.6,i,-8.6,-0.6,4.9,-10.1,
CC1CCN(C(=O)C2CCN(CC(C)c3ccccc3)CC2)CC1 (configuration not stated),-6.2,6.5,nt,i,0.7,0.9,-7.0,4.7,
O=C(COC(=O)c1cc2c(s1)CCCCC2)NC1CCS(=O)(=O)C1 (configuration not stated),-2.0,nt,4.8,nt,-4.5,1.6,3.5,nt,
CC(C)(C#N)Nc1ccccc1,-13.2,-6.4,nt,i,-11.2,3.4,4.4,-1.0,
CCn1nc(C)c(CN2CCN(Cc3cccc(OC)c3)C(CCO)C2)c1C (configuration not stated),-8.8,-1.9,-0.3,i,0.3,-1.9,2.4,-2.1,
CSc1nnc(-c2ccc(F)cc2)o1,-19.7,-1.1,nt,i,nt,-4.0,2.5,-6.5,
O=C(Nc1ccccc1C(=O)N1CCCCCC1)c1ccc(F)cc1,-17.7,2.8,-0.3,i,-10.1,2.6,1.8,-0.1,
COc1ccc(/C(N)=N/OC(=O)c2cccs2)cc1,nt,-10.4,-174.7,i,21.6,-1.5,-2.1,-4.2,
CCOc1ccc(Nc2nc(Cc3nnc(SCC(N)=O)o3)cs2)cc1,13.4,4.6,nt,i,nt,0.3,1.8,-7.7,
O=C1Nc2ccccc2/C1=N/c1sc2c(c1C(=O)NCCc1ccccc1)CCCC2,-2.8,5.2,nt,i,13.5,1.8,2.8,-10.5,
COc1cccc(-c2cc(NC(C)=O)c3ncc(-c4ccc(OC)c(OC)c4)n3c2)c1,-12.1,nt,5.9,nt,nt,-10.3,4.0,nt,
CCc1nc2c(OCc3cc(Cl)cc(Cl)c3)cccn2c1N(C)C(=O)c1ccc(OC)cc1,-9.4,nt,36.5,nt,nt,-5.5,-0.4,nt,
CN(C(=O)COC(=O)c1ccc2c(c1)NC(=O)CS2)C1CCS(=O)(=O)C1 (configuration not stated),-14.8,5.4,-52.6,i,-9.5,-0.6,4.9,0.4,
CC1CCCC(NC(=O)C2CCN(C(=O)Nc3ccccc3)CC2)C1C (configuration not stated),-14.0,nt,6.3,i,11.5,-0.1,-1.8,nt,
COc1ccc(-c2cc(C)no2)cc1S(=O)(=O)N1CCN(c2ccc([N+](=O)[O-])cc2)CC1,nt,3.8,6.6,i,-1.1,-1.1,-22.8,2.3,
CC1=C(C(=O)N2CCOCC2)CC(CC(=O)NCc2ccco2)C(=O)N1CCC1=CCCCC1 (configuration not stated),-8.2,nt,-3.7,nt,nt,-4.1,3.7,nt,
Cc1cccc(S(=O)Cc2ccc(C(=O)N3CCOCC3)o2)c1 (configuration not stated),-23.5,2.8,-12.2,i,-6.1,0.1,0.2,-4.9,
O=C1NC[C@H](c2ccccc2)OC(=O)[C@H](Cc2ccc(F)cc2)C/C=C\C[C@@H]1CC(=O)N(CCO)Cc1ccccc1,-11.6,nt,0.4,nt,-9.8,9.9,-4.2,nt,

# Screening results deposited in PubChem BioAssay by several laboratories.

# This is a random part of the collection. About 2.9% of those tested had a hit in this group.
